Compound activity as filed in PubChem BioAssay.
VCAM-1 down: inhibitors of TNFa-induced VCAM-1 surface display, cell-based, plate reader, pooled HUVEC, TNFa stimulus (AID 454); HUVEC TNFa-induced VCAM-1 surface immunofluorescence, plate reader; numbers were filed only for top-ranked candidate wells; inhibition, % at 5 µM; actives 0.2% (n = 10,000);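 active means compound among top-ranked inhibitors of TNF-induced VCAM-1 adhesion protein staining, with the hit upheld by image or statistical review; inactive means the rest, including hits rejected on review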;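 further: 0% = TNFa with vehicle and 100% = cells without TNFa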
FPRL1 binder: ligands of human FPRL1, also counter-screen for FPR ligands. FPRL1-expressing cells, fluorescent ligand binding inhibition, flow cytometry. P25090. inhibition, %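 (tested at 6.7 µM)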. actives 0.3% (n = 24,000);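 further: 0% = buffer alone and 100% = receptor blocker peptide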
Target sequence (P25090 whole entry, looked up): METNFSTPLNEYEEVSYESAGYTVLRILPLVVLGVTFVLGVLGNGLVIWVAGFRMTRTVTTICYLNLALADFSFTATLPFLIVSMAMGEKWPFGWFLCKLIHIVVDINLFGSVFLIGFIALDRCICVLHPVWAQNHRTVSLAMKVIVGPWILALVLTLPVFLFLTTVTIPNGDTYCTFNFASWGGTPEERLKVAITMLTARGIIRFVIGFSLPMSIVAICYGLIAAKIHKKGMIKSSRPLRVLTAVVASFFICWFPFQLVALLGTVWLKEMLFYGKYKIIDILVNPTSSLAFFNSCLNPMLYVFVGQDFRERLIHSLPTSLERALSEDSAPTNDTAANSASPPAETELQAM
VCAM-1 down imaging: suppression of endothelial VCAM-1 upregulation – imaging, high-content imaging, pooled HUVEC, TNFa stimulus (AID 456). actives 0.2% (n = 10,000). HUVEC TNFa-induced VCAM-1 surface expression, immunofluorescence imaging; numbers were filed only for top-ranked candidate wells. inhibition, % at 5 µM; hits with a dose series show IC50 in µM;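 active means top tenth filtered wells with inhibition above zero that passed visual or statistical confirmation; inactive means the rest, including hits rejected on review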;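 further: 0% = stimulated vehicle wells and 100% = unstimulated cells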
VCAM-1 augmentation: enhancers of VCAM-1 display on endothelial cells, imaging, high-content imaging, pooled HUVEC, TNFa stimulus (AID 457); Pooled HUVEC, TNFa-induced VCAM-1 immunofluorescence imaging; hits of this screen are not shown here; calls only; actives 0.2% (n = 10,000);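 active means a top-ranked rise in VCAM-1 staining upheld on image or statistical review; inactive means the rest, including candidates rejected on review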;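 further: compounds tested at 5 µM in the well; cells exposed to compound for 24 hours before fixing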
FPR binder: binds the human formylpeptide receptor FPR | P21462 | FPR-expressing cells, fluorescent ligand binding, flow cytometry | inhibition, %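 (tested at 6.7 µM)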 | actives 0.74% (n = 24,000);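 further: 0% = buffer wells and 100% = receptor blocker peptide wells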
Target sequence (P21462 whole entry, looked up): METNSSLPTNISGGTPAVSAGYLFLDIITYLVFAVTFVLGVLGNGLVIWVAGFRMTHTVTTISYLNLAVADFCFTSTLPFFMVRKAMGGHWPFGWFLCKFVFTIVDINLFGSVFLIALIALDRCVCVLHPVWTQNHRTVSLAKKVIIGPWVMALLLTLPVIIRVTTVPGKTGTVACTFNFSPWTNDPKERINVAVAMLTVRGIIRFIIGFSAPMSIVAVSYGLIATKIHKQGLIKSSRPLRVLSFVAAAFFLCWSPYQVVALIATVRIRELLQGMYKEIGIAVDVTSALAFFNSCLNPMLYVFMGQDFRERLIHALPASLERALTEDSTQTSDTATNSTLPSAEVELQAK
Numbers without * were called inactive; i = inactive; / = no result given.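 How the source made its calls, unless noted: active means mean above 30%; inconclusive means self-fluorescent; inactive means the rest.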 The list is partial; the hit share may differ from the screen's.

1. CCN(CC)CCNC(=O)c1cn(C)c2ccc(S(=O)(=O)N(C)C3CCCCC3)cc2c1=O
2. N#Cc1nc(COc2ccccc2)oc1N1CCCCC1
3. CCOC(=O)Nc1ccc(C(N)=O)cc1
4. COc1ccc(N2C(=O)C3CCCN3C2c2cc(OC)c(OC)c(OC)c2)cc1 (configuration not stated)
5. O=c1c2c3c(sc2n2cnnc2n1CCc1ccccc1)CCCC3
6. COCC(C)NC(=O)NC1(C(F)(F)F)Oc2ccc(Cl)cc2O1 (configuration not stated)
7. CCC(=O)Nc1c2c(nn1-c1ccc(C)cc1C)CSC2
8. COc1cccc(NC(=O)c2oc3ccccc3c2NC(=O)C2CC2)c1
9. COc1ccccc1Oc1coc2cc(O)ccc2c1=O
10. Cc1ccccc1C(=O)NC1CCN(Cc2nnnn2CCc2ccccc2)CC1
assay / entry,1,2,3,4,5,6,7,8,9,10
VCAM-1 down,/,/,/,/,i,/,/,/,/,i
FPRL1 binder,2,12,14,-6,-7,2,-9,2,2,-4
VCAM-1 down imaging,/,/,/,/,i,/,/,/,/,i
VCAM-1 augmentation,/,/,/,/,i,/,/,/,/,i
FPR binder,3,12,-4,-2,-3,6,-6,1,-3,-1

11. CN(CC(=O)Nc1ccncc1)S(=O)(=O)c1ccccc1
12. O=C(Nc1ccc2c(c1)OCO2)C(c1ccccc1)N1CCCCC1 (configuration not stated)
13. COc1ccc(OC)c(C2=NOC(C(=O)Nc3cc(C)nn3-c3ccccc3)C2)c1 (configuration not stated)
14. COc1ccc(OC)c(-c2cc(C(=O)Nc3c(C)nn(Cc4ccccc4)c3C)no2)c1
15. CC(=O)N1CCc2cc(S(=O)(=O)NCCC(=O)N3CCc4ccccc4C3)ccc21
16. CCCOc1ccc(C2c3c(oc4ccccc4c3=O)C(=O)N2CCCN2CCOCC2)cc1 (configuration not stated)
17. CC(c1ccccc1)N1CC(C(=O)N2CCN(c3ccccc3)CC2)CC1=O (configuration not stated)
18. CCn1c(C(=O)N2CCC(C(=O)NCc3cccs3)CC2)cc2sccc21
19. O=C(CS(=O)(=O)c1c[nH]c2ccccc12)N1CCCCC1
20. COc1ccc(OC)c(S(=O)(=O)N2c3ccccc3CC2C)c1 (configuration not stated)
assay / entry,11,12,13,14,15,16,17,18,19,20
VCAM-1 down,i,/,i,/,/,i,/,/,/,i
FPRL1 binder,0,-7,0,-5,2,-4,-2,14,8,-4
VCAM-1 down imaging,i,/,i,/,/,i,/,/,/,i
VCAM-1 augmentation,i,/,i,/,/,i,/,/,/,i
FPR binder,5,3,2,3,-4,0,3,3,10,5

21. CCOC(=O)N1CCC(NC(=O)C2CCCN(S(=O)(=O)c3cccc4nsnc34)C2)CC1 (configuration not stated)
22. CC(=O)NC1C(=O)SC1(C)C (configuration not stated)
23. CCN(CC)CC(=O)Nc1ccc(-c2nc3cc(NC(=O)CN(CC)CC)ccc3o2)cc1
24. Cc1ccc(S(=O)(=O)N(C)Cc2nc(-c3ccc(Br)cc3)no2)cc1
25. c1ccc2c(c1)C(=Nn1cnnc1)c1ccccc1-2
26. CCOc1ccc(S(=O)(=O)n2nc(C)cc2C)c2ccccc12
27. CCNC(=O)CC1C(=O)N(c2ccccc2)C(=O)N1CCC(C)C (configuration not stated)
28. CC(=O)N1CCC2(CC1)CC(=O)c1cc(OCC(=O)NCc3ccco3)ccc1O2
29. CCC(=O)N1CCN(c2nc(-c3ccccc3)c3c(c2C#N)CCCC3)CC1
30. CC(=O)c1cc2c(cc1NC(=O)CCCC(=O)O)OCO2
assay / entry,21,22,23,24,25,26,27,28,29,30
VCAM-1 down,/,/,74,/,i,i,i,i,i,/
FPRL1 binder,-3,-1,2,3,-3,0,-5,2,4,-5
VCAM-1 down imaging,/,/,i,/,i,i,i,i,i,/
VCAM-1 augmentation,/,/,i,/,i,i,i,i,i,/
FPR binder,-9,0,-1,13,-9,-13,0,0,9,-5

31. CCOC(=O)N1CCC(N2Cc3cccc(C(=O)NC(C)c4ccc5c(c4)OCCO5)c3C2=O)CC1 (configuration not stated)
32. CCOC(=O)CCC(=O)NCc1ccc2c(c1)cc(C)n2C
33. CC(C)c1ccc(S(=O)(=O)N2CCN(CC(=O)Nc3ccc4c(c3)OCO4)CC2)cc1
34. COCc1cc(C)nc(SCC(=O)Nc2cccc(C)c2C)c1C#N
35. CC(CN1CCCCC1)OC(=O)c1ccc(Cl)cc1Cl (configuration not stated)
36. CC1CCCCN1C(=O)C1CC(c2ccc(F)cc2)=NO1 (configuration not stated)
37. CCOC(=O)CNC(=O)C(Cc1ccccc1)NS(=O)(=O)c1cccs1 (configuration not stated)
38. CCN1C(=O)/C(=C2\SC(N3CCCCC3)=NC2=O)c2ccccc21
39. COc1nc(N)nc(N2CCOCC2)n1
40. NC(=O)CSc1nnnn1-c1ccc(OC(F)(F)F)cc1
assay / entry,31,32,33,34,35,36,37,38,39,40
VCAM-1 down,/,/,/,i,i,/,/,/,/,/
FPRL1 binder,-1,-3,-6,0,-8,1,2,3,1,0
VCAM-1 down imaging,/,/,/,i,i,/,/,/,/,/
VCAM-1 augmentation,/,/,/,i,i,/,/,/,/,/
FPR binder,-8,-2,4,1,-3,-2,0,2,1,-1

41. Cc1c(C(N)=O)sc2nc(-c3ccccc3)cn12
42. O=C(O)CCc1ccc(-c2ccc(F)cc2)n1CC(=O)O
43. Cc1cc(C)nc(NC2=NCC(=O)N2c2ccc(Cl)cc2)n1
44. CCN(CCNC(=O)C1CCN(S(=O)(=O)CC)CC1)c1ccccc1
45. CC12C(=O)N(c3cccc4cccnc34)C(=O)C1C1C=CC2C1 (configuration not stated)
46. O=C(NC1CC1)C1CCC(=O)N1C1CCCC1 (configuration not stated)
47. O=C(O)CCC(=O)N1CCc2cc(S(=O)(=O)Nc3ccc4c(c3)OCCO4)ccc21
48. Cc1cccc(NC(=O)C2CCCN(S(=O)(=O)c3c(C)nn(C)c3C)C2)n1 (configuration not stated)
49. CN1CCCN(C(c2ccccc2)c2ccc(Cl)cc2)CC1 (configuration not stated)
50. O=C1C(=O)N(CCCn2ccnc2)C(c2ccccn2)/C1=C(/O)c1ccccc1 (configuration not stated)
assay / entry,41,42,43,44,45,46,47,48,49,50
VCAM-1 down,/,i,i,i,/,i,/,/,i,/
FPRL1 binder,6,-1,1,6,-2,0,14,-4,-3,-5
VCAM-1 down imaging,/,i,i,i,/,i,/,/,i,/
VCAM-1 augmentation,/,i,i,i,/,i,/,/,i,/
FPR binder,-2,-2,1,-1,0,-4,13,-1,-6,-12

Ordered by length of the SMILES (descending): some entries from above.
31. CCOC(=O)N1CCC(N2Cc3cccc(C(=O)NC(C)c4ccc5c(c4)OCCO5)c3C2=O)CC1 (configuration not stated)
1. CCN(CC)CCNC(=O)c1cn(C)c2ccc(S(=O)(=O)N(C)C3CCCCC3)cc2c1=O
16. CCCOc1ccc(C2c3c(oc4ccccc4c3=O)C(=O)N2CCCN2CCOCC2)cc1 (configuration not stated)
13. COc1ccc(OC)c(C2=NOC(C(=O)Nc3cc(C)nn3-c3ccccc3)C2)c1 (configuration not stated)
48. Cc1cccc(NC(=O)C2CCCN(S(=O)(=O)c3c(C)nn(C)c3C)C2)n1 (configuration not stated)
29. CCC(=O)N1CCN(c2nc(-c3ccccc3)c3c(c2C#N)CCCC3)CC1
17. CC(c1ccccc1)N1CC(C(=O)N2CCN(c3ccccc3)CC2)CC1=O (configuration not stated)
37. CCOC(=O)CNC(=O)C(Cc1ccccc1)NS(=O)(=O)c1cccs1 (configuration not stated)
8. COc1cccc(NC(=O)c2oc3ccccc3c2NC(=O)C2CC2)c1
5. O=c1c2c3c(sc2n2cnnc2n1CCc1ccccc1)CCCC3
30. CC(=O)c1cc2c(cc1NC(=O)CCCC(=O)O)OCO2
35. CC(CN1CCCCC1)OC(=O)c1ccc(Cl)cc1Cl (configuration not stated)
assay / entry,31,1,16,13,48,29,17,37,8,5,30,35
VCAM-1 down,/,/,i,i,/,i,/,/,/,i,/,i
FPRL1 binder,-1,2,-4,0,-4,4,-2,2,2,-7,-5,-8
VCAM-1 down imaging,/,/,i,i,/,i,/,/,/,i,/,i
VCAM-1 augmentation,/,/,i,i,/,i,/,/,/,i,/,i
FPR binder,-8,3,0,2,-1,9,3,0,1,-3,-5,-3

39. COc1nc(N)nc(N2CCOCC2)n1
assay / entry,39
VCAM-1 down,/
FPRL1 binder,1
VCAM-1 down imaging,/
VCAM-1 augmentation,/
FPR binder,1

Further results follow:
51. COc1ccc(C2C(=O)N(C3CCCCC3)CC(=O)N2Cc2ccc3c(c2)OCO3)cc1 (configuration not stated)
52. CC(C)CCn1cnc2c(cnn2-c2ccc(Cl)cc2)c1=O
53. CCOC(=O)c1c(NC(=O)C(F)(OC)C(F)(F)F)sc(C(=O)N2CCCCC2)c1C (configuration not stated)
54. CCOC(=O)c1c2n(c3ccc(O)cc13)CCCCC2
55. COc1ccc(S(=O)(=O)CCC(=O)N2c3ccccc3CC2C)cc1 (configuration not stated)
56. COc1ccc2c(c1)C1CC(C)(NC(=O)C1C(=O)c1ccccc1)O2 (configuration not stated)
57. O=C(CCC1N=C2c3ccccc3N=C(SCc3ccc(F)cc3)N2C1=O)NCc1ccco1 (configuration not stated)
58. COc1ccccc1-c1c(C)nn2c(C)c(C(C)=O)cnc12
59. COCCn1c(=S)[nH]c2cc(C(=O)N3CCC(C(N)=O)(N4CCCCC4)CC3)ccc2c1=O
60. CCCCCCNC(=O)CC(NS(=O)(=O)c1ccc(NC(C)=O)cc1)C(C)C (configuration not stated)
assay / entry,51,52,53,54,55,56,57,58,59,60
VCAM-1 down,/,/,/,i,/,/,/,i,/,/
FPRL1 binder,-3,2,-5,5,-4,-8,7,-3,-2,1
VCAM-1 down imaging,/,/,/,i,/,/,/,i,/,/
VCAM-1 augmentation,/,/,/,i,/,/,/,i,/,/
FPR binder,-4,5,-9,-7,2,3,4,2,-7,8

61. CCn1ncc(C2=NOC(C(=O)Nc3ccccc3C(=O)OC)C2)c1C (configuration not stated)
62. COc1ncnc2c1N=C1CC(C)(C)CC(N)=C1S2
63. O=C(CN1CCC(n2nnc3ccccc32)CC1)Nc1ccc2c(c1)CCC2
64. CCOC(=O)CSc1nc2c(c(=O)n1-c1ccc(OCC)cc1)SCC2
65. Cc1cccc(-c2nc(CS(=O)CC(=O)N3CCCCC3)c(C)o2)c1 (configuration not stated)
66. Cc1ccc(-c2oc3ccccc3c(=O)c2O)cc1
67. CCc1ccc(S(=O)(=O)NCc2cn3cccc(C)c3n2)s1
68. Cc1nc2c(C(=O)NCc3ccc4c(c3)OCO4)c[nH]n2c(=O)c1Cc1ccccc1F
69. COc1ccc(OC)c2c(N3CC(C)OC(C)C3)cc(C(F)(F)F)nc12 (configuration not stated)
70. CCOC(=O)Nc1cc(OCC)c(NC(=O)C2CC2)cc1OCC
assay / entry,61,62,63,64,65,66,67,68,69,70
VCAM-1 down,/,i,i,/,/,i,/,/,/,i
FPRL1 binder,2,-2,-2,2,0,-4,8,-6,-12,-3
VCAM-1 down imaging,/,i,i,/,/,i,/,/,/,i
VCAM-1 augmentation,/,i,i,/,/,i,/,/,/,i
FPR binder,6,3,2,-4,-4,-4,-5,-4,-1,-4

71. O=C(NCc1ccc2c(c1)OCO2)c1cc2c(s1)CS(=O)(=O)C2
72. C/C(Nc1cccc(F)c1)=C(/C#N)C(N)=O
73. O=C(c1noc2c1CCCCC2)N1CCN(C(c2ccccc2)c2ccccc2)CC1
74. CC(=O)Nc1ccc(S(=O)(=O)N2CCN=C2C)cc1
75. O=C1N2CCSC2=NC1(Nc1ccccn1)C(F)(F)F (configuration not stated)
76. CCn1cc(C(=O)N2CCn3c(nc4ccccc43)C2)c(=O)c2ccc(C)nc21
assay / entry,71,72,73,74,75,76
VCAM-1 down,/,i,/,i,/,/
FPRL1 binder,-3,-2,-4,2,-1,0
VCAM-1 down imaging,/,i,/,i,/,/
VCAM-1 augmentation,/,i,/,i,/,/
FPR binder,0,-4,-4,-4,-5,-2
